Cruzain Triton: inhibitors of Trypanosoma cruzi cruzain with detergent | P25779 | purified cruzain, Z-FR-AMC fluorescence, 0.01% Triton | Potency, µM, for the others: max response, negative = inhibition, hits mostly inhibitors | 0.43% of 200,000 active;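 also: plate controls were neutral wells for no effect and buffer without enzyme for full effect; nearly all actives have a fitted effect of over 40% in size; top concentration of the series not given in the record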
Target sequence (P25779 123-467 limits assumed): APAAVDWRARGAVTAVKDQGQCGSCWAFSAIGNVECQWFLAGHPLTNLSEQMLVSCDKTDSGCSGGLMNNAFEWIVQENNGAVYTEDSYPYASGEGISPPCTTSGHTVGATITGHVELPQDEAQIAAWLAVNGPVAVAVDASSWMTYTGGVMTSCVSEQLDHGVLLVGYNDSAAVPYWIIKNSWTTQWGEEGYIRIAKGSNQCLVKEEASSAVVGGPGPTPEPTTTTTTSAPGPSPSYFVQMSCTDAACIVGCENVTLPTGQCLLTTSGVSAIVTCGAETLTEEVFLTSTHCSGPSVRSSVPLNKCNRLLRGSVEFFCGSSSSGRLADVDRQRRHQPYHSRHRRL
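Sodium acetate buffer (100 mM, pH 5.5) containing 5 mM DTT and 0.01% Triton X-100 hosted 1.5 nM cruzain and test compound for 15 min at room temperature. Cleavage of 2 uM Z-FR-AMC was then tracked by fluorescence.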
LASV entry inh: Lassa virus entry inhibition; Lassa virus pseudotype entry inhibition, cell reporter; control for the full effect not named in the record; Potency, µM (series often up to 37.9 µM), for inactives: top-dose activity change, negative = inhibition, actives largely listed as inhibitors; 1.2% of 300,000 active; active means well fitted inhibition curve with a large enough effect; inconclusive means small, poorly fitted or top-dose-only effect, or effect the other way; inactive means flat fitted curve, though single readings scatter; tested in HEK293 cells; also: % is scaled to controls: 0 for no effect and ±100 for the full control effect; nearly all actives have a fitted effect of over 50% in size; luciferase read-out
Cruzain noTriton: blocks cruzain activity in detergent-free assay | 2.3% of 200,000 active | Potency, µM, for inactives: max response, negative = inhibition, actives largely listed as inhibitors | AID 1476 | purified cruzain, Z-FR-AMC fluorescence, no detergent | P25779;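 also: plate controls were enzyme without inhibitor for no effect and buffer without enzyme for full effect; nearly all actives have a fitted effect of over 40% in size; top concentration of the series not given in the record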
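Detergent-free condition (0.00005% Triton X-100) in acetate buffer pH 5.5 with DTT. 1.5 nM enzyme and compound were pre-mixed 15 min, then 2 uM Z-FR-AMC substrate added; reaction progress from fluorescence change between first and third reads (60 s).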
2A StopGo: lowers the luciferase signal of an FMDV 2A StopGo reporter. 1.2% of 410,000 active. Potency, µM (highest dose often 57.9 µM), for inactives: top-dose signal change, negative = less light. AID 1159524. human cells with a luciferase reporter of 2A StopGo recoding; control for the full effect not named in the record; active = well fitted falling curve with a large enough effect; inconclusive = small, poorly fitted or top-dose-only effect; inactive = no such curve, though single readings can be large or run the other way; tested in HEK293T cells; also: % is scaled to controls: 0 for no effect and ±100 for the full control effect; nearly all actives have a fitted effect of over 45% in size; luciferase light after 4 h
NS1 inh: influenza NS1 inhibition; S. cerevisiae slowed by influenza A NS1, growth recovery by OD600; Potency, µM (doses to about 46.1 µM), without a hit: at the top dose activity, positive = more growth; 0.4% of 270,000 active; active means well fitted rising curve with a large enough effect; inconclusive means small, poorly fitted or top-dose-only effect; inactive means no such curve, though single readings can be large or run the other way; also: nearly all actives have a fitted effect of over 50% in size
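S. cerevisiae expressing influenza A NS1, grown in glucose, washed, then diluted 1:100 into pH 6.0 -URA galactose medium with 23 nl compound. Growth recovery read as OD600; NS1-free strain serves as control.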
RE007 growth inh: less growth of the S. pombe RE007 Vpr strain. S. pombe RE007 Vpr strain, BacTiter-Glo ATP luminescence, 24 h; control for the full effect not named in the record. Potency, µM (top dose mostly 92.2 µM), inactives show top-dose activity change, negative = less growth. 0.21% of 360,000 active; active = well fitted falling curve with a large enough effect; inconclusive = small, poorly fitted or top-dose-only effect; inactive = no such curve, though single readings can be large or run the other way;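 also: % is scaled to controls: 0 for no effect and ±100 for the full control effect; nearly all actives have a fitted effect of over 50% in size; the assay follows cell death caused by Vpr and the record does not say whether a fall means rescue or toxicity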
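Fission yeast RE007 carrying one integrated HIV-1 vpr copy, seeded at OD 0.01 in PMG+AL medium with 23 nL pinned compound. Grown 24 h at 30 degrees; viability read by BacTiter-Glo luminescence after 5 min.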
SARS PLpro yeast: blocks SARS-CoV papain-like protease in a yeast assay. S. cerevisiae expressing SARS-CoV PLpro, growth rescue; control for the full effect not named in the record. Potency, µM (titrated, usually from 32.9 µM), without a hit: at the highest dose activity, positive = growth rescue. 0.19% of 330,000 active; active means well fitted rising curve with a large enough effect; inconclusive means small, poorly fitted or top-dose-only effect; inactive means no such curve, though single readings can be large or run the other way; also: 0% is about no effect; nearly all actives have a fitted effect of over 55% in size; growth read by luminescence after 48 h
MARV entry inh: inhibitors of Marburg virus binding or cell entry. Marburg virus pseudotyped entry inhibition, cell reporter; control for the full effect not named in the record; about a third of the inactives were read at about 46 µM. AID 540276. Potency, µM (doses to about 37.8 µM), without a hit: at the top dose activity change, negative = inhibition, actives largely listed as inhibitors. 1.8% of 300,000 active; active = well fitted inhibition curve with a large enough effect; inconclusive = small, poorly fitted or top-dose-only effect, or effect the other way; inactive = flat fitted curve, though single readings scatter; tested in HEK293 cells; about a fifth of its hits are not listed in these tables; also: % is scaled to controls: 0 for no effect and ±100 for the full control effect; luciferase read-out
An asterisk follows results filed as active; ? = inconclusive; . = no result given; [ ] = another dose, or the depositor's remark. Unless noted, calls follow the shape of the dose curve; as a rule, active = well fitted curve in the direction sought with a large enough effect; inconclusive = small, poorly fitted or top-dose-only effect, or another doubt; inactive = no such curve, though single readings can be large; an effect the other way counts as inactive or inconclusive. Potency is read from the fitted curve at half-maximal effect.

SMILES | Cruzain Triton | LASV entry inh | Cruzain noTriton | 2A StopGo | NS1 inh | RE007 growth inh | SARS PLpro yeast | MARV entry inh
COc1ccc(OC)c(S(=O)(=O)Nc2cccc3ccccc23)c1 | . | 6% | . | 63%[activator] | . | -5% | . | -8%
Cc1cccc(N(C)c2nc3ccccc3c3nnc(C)n23)c1 | -2.5% | 17%[46.1 µM] | 9% | -8% | . | . | . | .
CCn1c2ccccc2c2nnc(SCCN3CCOCC3)nc21 | . | . | . | -6% | -1% | 1% | 1% | .
COc1cc(N/N=C(\C)c2ccc(O)c(C)c2)nc(-c2ccccc2)n1 | . | ? | . | 2% | 2% | ? | -3% | ?
Clc1ccc(C[n+]2cc(-c3ccc(Cl)cc3)n3c2CCC3)cc1 | . | 0% | . | -10% | -2% | -13% | 1% | 3%
Cc1cccc(N2CCN(C(=O)C(Cc3ccccc3)n3cccc3)CC2)c1C (stereo not given) | 0.7% | . | -5% | -23% | 1% | 2% | -17% | 0%
Cc1ccc(NC(=S)N2CCN(c3ccccn3)CC2)cc1C | . | . | . | -2% | -7% | -24% | 10% | .
CC(C)c1ccccc1NC1=NCCCS1 | . | 1%[46.1 µM] | . | -21% | 3% | -9% | 0% | ?
CNC(=O)Nc1ccc2snnc2c1 | -4.6% | . | -16% | 0% | -4% | -9% | -12% | .
CCOc1ccc(C2C(C(=O)c3ccc(C)o3)=C(O)C(=O)N2c2cc(C)on2)cc1OC (stereo not given) | . | 13%[46.1 µM] | . | -10% | 17% | -4% | 2% | -3%[46.1 µM]
COc1cccc(OC)c1C(=O)Nc1ccc(C(=O)NCc2ccccc2)cc1 | . | -1% | . | -8% | 8% | ? | -1% | 15%
COc1cccc(NC(=S)Nc2cccnc2)c1 | 0.8% | -2% | 13% | 6% | 15% | -10% | 8% | 7%
CC(C)CCNC(=O)c1cc2cc(S(=O)(=O)N3CCCCC3)ccc2n1C | -0.5% | ? | -2% | -15% | . | . | . | .
CCc1ccc(NC2=NC(C(=O)c3ccccc3)CC(=O)N2)cc1 (stereo not given) | 1.6% | 12% | -22% | -20% | 1% | 11% | -6% | -1%[46.1 µM]
O=C(CSc1nc2ccccc2o1)NCc1n[nH]c(=O)c2ccccc12 | 2.6% | -13% | -2% | -16% | -1% | 12% | 0% | -16%
Cc1ccc2[nH]c3nc(N/N=C/c4cccc(O)c4)nnc3c2c1 | . | ? | . | -6% | 12% | 7% | 4% | -15%
COc1ccccc1C(=O)NCCC(=O)Nc1cccnc1 | . | . | . | -9% | 4% | 3% | 1% | .
COC(=O)Cn1nc(-c2ccccc2)c2ccccc2c1=O | 0.9% | -14% | 16% | . | -131% | 12% | -17% | 8%
CCOC(=O)C1CCN(Cc2ccccc2C(F)(F)F)CC1 | 3.5% | -2% | -1% | -17% | -4% | 6% | 5% | 10%
Cc1nn(CC(=O)NCc2ccco2)c(=O)c2cc3ccccc3n12 | -1.3% | -6%[46.1 µM] | -7% | -23% | . | . | . | ?

5 of the compounds above, as a markdown table.
| Molecule | Cruzain Triton | LASV entry inh | Cruzain noTriton | 2A StopGo | NS1 inh | RE007 growth inh | SARS PLpro yeast | MARV entry inh |
| --- | --- | --- | --- | --- | --- | --- | --- | --- |
| CC(C)c1ccccc1NC1=NCCCS1 | . | 1%[46.1 µM] | . | -21% | 3% | -9% | 0% | ? |
| CNC(=O)Nc1ccc2snnc2c1 | -4.6% | . | -16% | 0% | -4% | -9% | -12% | . |
| CCOc1ccc(C2C(C(=O)c3ccc(C)o3)=C(O)C(=O)N2c2cc(C)on2)cc1OC (stereo not given) | . | 13%[46.1 µM] | . | -10% | 17% | -4% | 2% | -3%[46.1 µM] |
| COc1cccc(OC)c1C(=O)Nc1ccc(C(=O)NCc2ccccc2)cc1 | . | -1% | . | -8% | 8% | ? | -1% | 15% |
| COc1cccc(NC(=S)Nc2cccnc2)c1 | 0.8% | -2% | 13% | 6% | 15% | -10% | 8% | 7% |

Continued.
SMILES | Cruzain Triton | LASV entry inh | Cruzain noTriton | 2A StopGo | NS1 inh | RE007 growth inh | SARS PLpro yeast | MARV entry inh
CSCCC(NC(=O)C12CC3CC(CC(C3)C1)C2)C(=O)OCC(=O)c1ccccc1 (stereo not given) | 0.8% | -2% | -5% | -3% | 9% | -1% | 6% | ?
CC(=O)Nc1c(C)ccc2nsnc12 | -1.3% | 6% | 1% | -11% | -4% | 20% | -1% | 0%
C=CCNC(=O)c1onc(CSc2ccc(OC)cc2)c1C(=O)O | 4.0% | . | 4% | 6% | 8% | -4% | -2% | .
COc1cc2nc(SCC(=O)Nc3ccccc3F)n3nc(-c4ccccc4)nc3c2cc1OC | -0.5% | ? | -18% | 27% | . | . | . | 6%[46.1 µM]
Cc1cccc(-c2nc(S(=O)(=O)c3ccccc3)c(N3CCOCC3)o2)c1 | . | 4% | . | -7% | 4% | -3% | 0% | -13%[46.1 µM]
CCOc1cc(CNc2ccc3cn[nH]c3c2)ccc1OC | -5.0% | -9% | -22% | -7% | 26% | -7% | -11% | ?
CCSC1=NC(C)(C)C=C(/C=C/c2ccc(Cl)cc2Cl)N1 | -7.5% | ? | ? | ? | -56% | -15% | -5% | ?
Cc1cc(C)c(S(=O)(=O)c2ccccc2Cl)c(=O)[nH]1 | . | . | . | -15% | -2% | 8% | -1% | .
Cc1cccc(C(=O)N[C@H](C(=O)Nc2nnc(C3CC3)s2)C(C)C)c1 | -1.1% | 8% | -7% | 0% | 17% | 8% | -2% | 20%
Cc1cc2occ(CC(=O)O)c2cc1C | -3.1% | 5% | 13% | -2% | -110% | -14% | ? | 10%[46.1 µM]
CCOC(CNC(=O)c1nnc(Cc2cc(OC)c(OC)c(OC)c2)o1)OCC | . | 4%[46.1 µM] | . | 3% | . | 135% | 3% | 22%[46.1 µM]
O=C(c1ccc(F)cc1)N1CCC(C(=O)N2CCN(S(=O)(=O)c3cccc([N+](=O)[O-])c3)CC2)CC1 | . | -27% | . | ? | . | 15% | -2% | -4%
CC(=O)c1c(C)c[nH]c1C | 3.2% | 3% | -4% | -18% | 9% | -18% | 4% | ?
Cc1nc(NC(CC(C)C)C(=O)O)c2nc(C)oc2n1 (stereo not given) | 1.7% | ? | -2% | 13% | ? | 14% | 6% | 20%
O=C(O)c1ccc(COc2ccccc2Cl)cc1 | 1.5% | -8% | 9% | 52%[activator] | -204% | -2% | -9% | 10%
CC(=O)[C@@H]1[C@@H]2C(=O)N(C3CCCCC3)C(=O)[C@@H]2C2c3ccccc3C=CN21 (stereo not given in full) | 1.4% | . | -15% | . | ? | . | -2% | .
CN(C)/N=C/c1ccc(OS(=O)(=O)c2ccccc2)cc1 | . | 15% | . | 69%[activator] | -1% | -3% | -2% | 16%[46.1 µM]
Cn1c(C(=O)Nc2cccc(Cl)c2)cc2c(=O)n(C)c3ccccc3c21 | 1.3% | 4%[46.1 µM] | 3% | ? | . | . | . | 6%[46.1 µM]
COc1ccc(-n2cc(CNCCCn3ccnc3)c(-c3cccc(F)c3)n2)cc1 | . | . | . | -16% | 2% | 2% | 0% | .
Cc1cccc(NC(=O)Nc2ccc(Cl)c(Cl)c2)n1 | . | 10% | . | -35% | -13% | -2% | -9% | ?
CCN1CCN(CC(=O)c2cc(OC)c(OC)c(OC)c2)CC1 | . | 20%[46.1 µM] | . | -1% | . | 0% | 2% | -1%[46.1 µM]
CN1CCN(Cc2c(C(=O)N/N=C/c3cccc(Br)c3)nnn2-c2nonc2N)CC1 | . | . | . | -17% | 6% | 7% | 0% | .
Cc1cc(/C=C2\SC(N)=NC2=O)c(C)n1-c1ccccc1 | -1.7% | ? | ? | 13% | 8% | 21% | 6% | ?
O=C(N[C@@H](CO)C(=O)NCc1ccccc1)c1ccc(C(F)(F)F)cc1 | . | . | . | -13% | 13% | 20% | 0% | .
CNc1oc(-c2ccco2)nc1C#N | -3.8% | 1% | -4% | 8% | -2% | 6% | 4% | 24%
O=C(/C=C/Nc1ccccc1)c1ccc(Cl)cc1Cl | . | . | . | -25% | -28% | -24% | -4% | .
CCc1c(C(=O)N/N=C/c2sccc2C)nnn1-c1nonc1N | . | 14%[46.1 µM] | . | 21% | 0% | -5% | 1% | 0%[46.1 µM]
O=C1CC(c2cc3c(cc2Br)OCO3)C2=C(CCCC2=O)N1 (stereo not given) | 6.1% | 11% | -2% | -27% | -2% | -7% | -2% | -6%
CC(C)(C)C(=O)N1CCN(c2ccc(NC(=O)c3ccc4c(c3)OCCO4)cc2)CC1 | . | ? | . | 32µM* | 2% | -5% | -1% | ?
CCCCOc1ccccc1N1CCN(CCCN2C(=O)C3CCCN3C2=O)CC1 (stereo not given) | . | . | . | 0% | 4% | -6% | 2% | .
N#Cc1ccc(CSc2nnc(-c3c[nH]c4ccccc34)n2-c2ccccc2)cc1 | . | ? | . | ? | 11% | 0% | -1% | 2.5µM*
Cn1c(NC(=O)c2cccc(Cn3cc(Cl)cn3)c2)nc2ccccc21 | 0.7% | ? | -15% | 19% | -12% | 3% | 3% | -7%

In the list so far, six have an NH in an aromatic ring:
SMILES | Cruzain Triton | LASV entry inh | Cruzain noTriton | 2A StopGo | NS1 inh | RE007 growth inh | SARS PLpro yeast | MARV entry inh
O=C(CSc1nc2ccccc2o1)NCc1n[nH]c(=O)c2ccccc12 | 2.6% | -13% | -2% | -16% | -1% | 12% | 0% | -16%
Cc1ccc2[nH]c3nc(N/N=C/c4cccc(O)c4)nnc3c2c1 | . | ? | . | -6% | 12% | 7% | 4% | -15%
CCOc1cc(CNc2ccc3cn[nH]c3c2)ccc1OC | -5.0% | -9% | -22% | -7% | 26% | -7% | -11% | ?
Cc1cc(C)c(S(=O)(=O)c2ccccc2Cl)c(=O)[nH]1 | . | . | . | -15% | -2% | 8% | -1% | .
CC(=O)c1c(C)c[nH]c1C | 3.2% | 3% | -4% | -18% | 9% | -18% | 4% | ?
N#Cc1ccc(CSc2nnc(-c3c[nH]c4ccccc34)n2-c2ccccc2)cc1 | . | ? | . | ? | 11% | 0% | -1% | 2.5µM*
